# Screens: PubChem BioAssay, National Center for Advancing Translational Sciences (NCATS)
# ClpP mod: qHTS Assay for Activators of ClpP; purified B. subtilis ClpP, FRET peptide cleavage, 20 min; ATP-dependent Clp protease proteolytic subunit (Bacillus subtilis (strain 168)), P80244; AID 651965, 2013; Potency, µM (highest dose often 57.5 µM), for inactives: at the highest dose activity change, negative = active; 340,000 tested, 1.9% active; active = well fitted falling curve with a large enough effect; inconclusive = small, poorly fitted or top-dose-only effect; inactive = no such curve, though single readings can be large or run the other way; also: potency is read from the fitted curve at half-maximal effect; the source files actives as falling curves though it sought activators and does not explain the sign; nearly all actives have a fitted effect of over 65% in size; many hits overshoot -100%
# Target sequence (P80244 whole entry, looked up): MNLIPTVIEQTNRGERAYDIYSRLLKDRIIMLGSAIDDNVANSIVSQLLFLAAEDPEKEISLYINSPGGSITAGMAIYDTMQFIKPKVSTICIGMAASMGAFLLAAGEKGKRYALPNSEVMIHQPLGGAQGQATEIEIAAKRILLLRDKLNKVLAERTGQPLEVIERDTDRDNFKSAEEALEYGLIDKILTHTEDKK
#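 ClpP 10 microg/mL final, pH 8 Tris/KCl buffer with BSA, glycerol, Tween-20; compound pinned in; FRET-FV substrate; RT 20 min; Ex320/Em430; ΔFRET vs ADEP 5.8 microM, DMSO, no enzyme.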
# gsp antagonist: antagonists of gsp mutant (McCune-Albright syndrome); gsp-mutant cells, cAMP HTRF, 30 min; control for the full effect not named in the record; Potency, µM (highest dose often 76.9 µM), inactives show at the highest dose activity change, negative = inhibition, actives largely listed as inhibitors; 340,000 tested, 0.4% active; active = falling curve of any shape with a large fitted effect; inconclusive = falling curve, mostly with a smaller effect; inactive = flat or rising curve; cell line not stated here;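 also: intracellular cAMP measured with PDE inhibitor Ro 20-1724 present during compound exposure; potency is read from the fitted curve at half-maximal effect; % is scaled to controls: 0 for no effect and ±100 for the full control effect; nearly all actives have a fitted effect of over 65% in size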
#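 Measurement of cellular cAMP by homogeneous time-resolved fluorescence following a 30 min compound exposure at 37C. The PDE inhibitor […] was present throughout; the assay buffer was DPBS with 0.05% BSA and 0.005% Tween 20.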
# gsp ag: gsp mutant agonism. Potency, µM (doses to about 76.9 µM), for inactives: at the top dose activation (cAMP increase), actives largely listed as activators. 340,000 tested, 0.13% active. gsp mutant cells, cAMP HTRF, 30 min; control for the full effect not named in the record; active = well fitted activation curve with a large enough effect; inconclusive = small, poorly fitted or top-dose-only effect, or another doubt; inactive = no such curve, though single readings can be large or run the other way; cell line not stated here;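 also: phosphodiesterase inhibitor Ro 20-1724 added with compounds to block cAMP breakdown; potency is read from the fitted curve at half-maximal effect; nearly all actives have a fitted effect of over 60% in size; about a fifth of the inactives were tested at one dose only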
#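 Cells stably selected in G418 were plated at 2000/well, grown 16-24 hr, then given compounds in DMSO with the PDE inhibitor […] (300 uM solution added) for 30 min at 37C; cAMP was read by HTRF.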
# Menin MLL FP FL: menin-MLL binding inhibition, fluorescein peptide; Fluorescence polarization, fluorescein-MLL peptide displacement from menin; FP activity change, % at 61.4 µM; 290,000 tested, under 10 active; AID 1766; inconclusive = falling polarisation curve, or a change in total fluorescence; inactive = total fluorescence flat and polarisation flat or rising; no compound was filed as active; the % refers to the polarisation; negative = inhibition;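 also: % of control where 0% means no effect; inhibitors lower the polarisation; unlabelled MLL peptide was the positive control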
# TRPML1 agonist: agonists of human TRPML1 channel. 410,000 tested, 0.12% active. Q9GZU1. TRPML1-expressing cells, Ca2+ dye fluorescence, FDSS; host cell line not named in the record; reference of the full effect not given here. activation, % (concentration not given with the values); in the data active = activation above about 50%; inconclusive = about 30% to 50%; inactive = below about 30%; also: 0% is about no effect; the text of the record puts the active cut at 80%
# Target sequence (Q9GZU1 whole entry, looked up): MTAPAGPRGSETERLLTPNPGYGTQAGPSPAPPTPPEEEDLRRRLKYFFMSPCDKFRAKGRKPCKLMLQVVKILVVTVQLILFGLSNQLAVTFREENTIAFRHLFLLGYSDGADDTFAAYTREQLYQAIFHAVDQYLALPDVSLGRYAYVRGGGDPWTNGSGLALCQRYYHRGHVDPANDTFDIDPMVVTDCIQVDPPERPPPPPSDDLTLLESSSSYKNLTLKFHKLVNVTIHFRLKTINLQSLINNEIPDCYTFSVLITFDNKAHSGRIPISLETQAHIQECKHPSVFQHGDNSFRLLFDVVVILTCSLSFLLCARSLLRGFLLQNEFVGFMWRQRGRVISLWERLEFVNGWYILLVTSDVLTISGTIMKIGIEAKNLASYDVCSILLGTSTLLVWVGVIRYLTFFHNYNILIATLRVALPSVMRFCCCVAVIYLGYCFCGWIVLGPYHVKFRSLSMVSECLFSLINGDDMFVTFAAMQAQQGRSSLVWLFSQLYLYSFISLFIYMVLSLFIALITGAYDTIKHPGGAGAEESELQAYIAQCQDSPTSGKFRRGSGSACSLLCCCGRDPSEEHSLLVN
#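 Kinetic FDSS Ca2+ read in Tet-induced TRPML1-DL cells (ABD Ca8 dye plus quencher, 45-90 min RT loading): baseline, then compound, then 110 s agonist window; EC80 agonist 54-4 at 4uM final added afterwards for a 110 s antagonist window.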
# TRPML1 blocker: human mucolipin-1 channel inhibition; TRPML1-inducible cells, Ca2+ dye fluorescence, FDSS; hits give low values; inhibition of EC80 agonist-evoked calcium signal; activity change, negative = inhibition, % (concentration not given with the values); 390,000 tested, 0.02% active; AID 624415; in the data active means activity change below about -50%; inconclusive means about -30% to -50%; inactive means above about -30%;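 also: stimulus is agonist 54-4 at its EC80 concentration; % is scaled to controls: 0 for no effect and ±100 for the full control effect; compound concentration not given in the record; the text of the record puts the active cut at -80%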
#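 Calcium fluorescence in TRPML1-DL cells induced overnight with Tet: a 110 s read after compound pin addition, then a 110 s antagonist read after challenge with 54-4 at 4 uM final (EC80).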
# Numbers without * were called inactive; ? = inconclusive; . = no result given; & = joins results of further samples; [ ] = dose if it differs, or a comment.
structure,Menin MLL FP FL,TRPML1 blocker,TRPML1 agonist,gsp ag,ClpP mod,gsp antagonist
COc1ccc(OC)c(-c2nnc3n(CCc4ccccc4)c(=O)c4ccccc4n23)c1,.,15,-1.1,.,0.9%,.
CCNC(=O)c1c(NC(=O)c2cc(=O)c3ccc(C)c(C)c3o2)sc2c1CCCC2,.,-3,0.4,.,-5.9%,.
Cc1ccc(S(=O)(=O)NCc2ccncc2)cc1C(=O)NCC(C)C,-0.7,14,0.0,2%,0.3%,-1%
CC(C)CC1NC(=O)N(CCCCN2C(=O)c3ccccc3C2=O)C1=O (stereo unspecified),-3.4,42,0.1,10%[15.4 µM],.,-4%
C=CCOc1cccc(C2c3c(oc4ccccc4c3=O)C(=O)N2c2ccccn2)c1 (stereo unspecified),0.1,-19,0.2,-22%,-1.9%,-1%
CCOc1ccc(-c2nc(-c3cccnc3)no2)cc1,1.1,-3,0.3,12%[15.4 µM],-0.3%,-1%
COc1cc(Cl)ccc1OCc1cc(C(=O)NC(C)Cc2cccnc2)no1 (stereo unspecified),.,-8,1.1,-6%,28µM*,3%
O=C(CSc1nnnn1-c1ccc2c(c1)OCO2)NCc1cccs1,3.4,-15,1.0,-7%,-1.6%,2%
COc1cc([N+](=O)[O-])ccc1NC(=O)NCc1ccco1,-7.0,2,-1.3,22%[15.4 µM],1.0%,-6%
CCOc1ccccc1-n1ccn(CC(=O)Nc2ccc(Br)cc2F)c(=O)c1=O,.,-9,0.0,1%,-1.4%,-8%
CCc1ccc(OCC(=O)NC(=S)Nc2ccc(C(C)=O)cc2)c(Br)c1,-0.5,2,0.5,18%,1.7%,5%
COC(=O)C1(C)NC(c2ccccc2C)C2C(=O)N(c3ccc(F)cc3)C(=O)C21 (stereo unspecified),-2.4,-7,-0.6,0%,.,5%
CCc1ccccc1NC(=O)CN(C)Cc1c(O)ccc2ccccc12,-8.0,2,0.6,-1%[15.4 µM],.,?
COc1ccc(S(=O)(=O)N(CC(=O)N2CCc3ccccc3C2)c2ccc(C)cc2)cc1,.,18,0.2,.,-3.9%,.
O=C(OCC1OC2C(Oc3nc(=O)ccn32)C1O)c1ccccc1 (stereo unspecified),-1.3,-16,0.2,-1%,1.3%,2%
O=c1[nH]c2cc3c(cc2cc1C(c1nnnn1CC1CCCO1)N1CCCC1)OCO3 (stereo unspecified),3.3,-6,-0.1,3%,32µM*,19%
CCOc1cc(-c2nnc(NC(=O)C3=COCCO3)o2)cc(OCC)c1OCC,.,-11,-0.7,-6%[15.4 µM],2.5%,-12%
CS(=O)(=O)Nc1ccc(S(=O)(=O)NC2CCCCC2)cc1,-1.6,11,-0.2,-14%,.,10%
Cc1ccc(/C=C2/CCc3c([nH]c4ccccc34)C2=O)cc1,4.5,32,0.0,18%,-8.4%,6%
Nc1cccc(NC(=O)CN2CCOCC2)c1,-0.8,4,0.5,-4%[15.4 µM],1.1%,2%
CC(C(=O)N1CCN(Cc2ccccc2)CC1)c1ccc([N+](=O)[O-])cc1 (stereo unspecified),-1.0,27,3.7,-31%,-2.3%,1%
CCc1ccc(-n2c(C)cc(/C=N/NC(=O)OC)c2C)cc1,0.2,-12,1.4,11%,-0.7%,-8%
COC(=O)C1=C(C)NC(C)=C(C(=O)OC)C1c1ccc2ccccc2n1,0.7,-1,0.6,-16%,-7.3%,2%
O=C(Nc1ccc(F)cc1F)NC1CC(=O)N(Cc2ccccc2)C1 (stereo unspecified),?,-15,0.1,-53%[inhibitor],-1.3%,3%
CCSc1nc2sc3c(c2c(=O)n1-c1ccc(C)cc1)CCN(C)C3,16,-24,-0.3,23%,3.7%,-36%
COc1ccc(C(C#N)Nc2ccccc2OC)cc1 (stereo unspecified),1.8,-8,0.1,0%,0.1%,10%
COc1cccc(NC(=O)C2CCN(S(=O)(=O)c3c(C)noc3C)CC2)c1,.,50,-0.8,.,1.6%,.
Cc1csc(SC(C)C(=O)NCC2CCCCC2)n1 (stereo unspecified),6.3,4,-1.0,4%[15.4 µM],-2.9%,13%
Cc1cc(C)c(S(=O)(=O)NC2CC3CCC2C3)c(C)c1 (stereo unspecified),-1.9,-6,0.3,12%,-2.0%,4%
COc1cccc(NC(=O)CCC2CCN(C(=O)c3scnc3C)CC2)c1,.,5,0.1,-4%[15.4 µM],-2.6%,0%
CCOC(=O)c1ccc(NC2=CC(c3ccc(Br)cc3)N(c3ccc(C(=O)OCC)cc3)C2=O)cc1 (stereo unspecified),.,-5,1.4,.,-1.6%,.
COc1ccc(-n2c(Cc3cccn3C)nnc2SCC(=O)N2CCC(C)CC2)cc1,0.3,-17,1.4,?,1.3%,-8%
CC1CCN(C(=O)CSc2nnc(CNC(=O)COc3ccc(Cl)cc3)o2)CC1,-1.0,11,-1.0,-13%,0.5%,16%
CCCOc1ccc(C2CC(=O)Nc3c2c(=O)n(C)c(=O)n3C)cc1OC (stereo unspecified),.,-1,-0.3,.,-8.5%,.
CCOC(=O)C1CCCN(C(=O)c2ccc(S(=O)(=O)N3CCCC3)cc2)C1 (stereo unspecified),.,2,-0.6,-36%[inhibitor],2.7%,-10%
Cc1nccn1S(=O)(=O)c1cc([N+](=O)[O-])ccc1Cl,3.1,1,0.0,9%[15.4 µM],-1.7%,8%
CCOC(=O)C1CCCN(C(=O)c2ccc3c(c2)N(C)C(=O)/C(=C/c2ccccc2Cl)S3)C1 (stereo unspecified),.,9,1.0,-19%,-7.7%,11µM*
C/C(=N\N=C(/N)SC1CC(=O)N(c2ccccc2)C1=O)c1cccs1 (stereo unspecified),0.9,-8,0.3,-34%[inhibitor],0.3%,-8%
Cc1ccccc1OCC(=O)NNC(=O)c1cc(S(=O)(=O)N2CCOCC2)ccc1N1CCCC1,.,18,-0.9,-2%,-2.4%,2%
Cc1ccc2c(c1)N(CCCC(=O)NCCC1=CCCCC1)C(=O)CO2,3.1,27,0.5,-22%,-0.2%,-23%
CC1CC(CC(C)C(=O)Nc2nncs2)C(=O)O1 (stereo unspecified),-0.4,10,0.2,13%,-1.8%,8%
O=C(Nc1cccc(F)c1)C1CCN(c2nc3ccccc3[nH]2)CC1,.,-2,0.6,.,2.0%,.
O=C(NN1C(=O)c2cc(Br)ccc2NC1c1ccccc1Cl)c1ccncc1 (stereo unspecified),11,-11,-0.5,-11%,-5.2%,-10%
CC1CCN(S(=O)(=O)c2ccc3c(c2)N(CC(=O)NCc2ccccc2Cl)C(=O)CO3)CC1,.,5,1.1,.,2.4%,.
C(#Cc1ccc(C#CCN2CCCC2)cc1)CN1CCCC1,-2.1,-6,0.6,6%[15.4 µM],0.5%,-21%
CC(C)C(NC(=O)c1ccccc1)C(=O)NCc1ccccn1 (stereo unspecified),-0.5,-4,0.4,6%,-3.3%,7%
COc1ccc(CNCc2ccc(C(F)(F)F)cc2)cc1OC,1.8,?,0.0,-2%[15.4 µM],0.6%,-3%
O=C(CSc1nc2c(sc3ccccc32)c(=O)n1CCCN1CCOCC1)NC1CCCC1,0.3,12,0.7,?,-4.3%,11%
C=C1C=CS(=O)(=O)N(Cc2ccccc2)C1,1.8,-16,0.9,.,.,.
COc1cccc(NC(=O)Nc2ccc(Br)cn2)c1,1.9,-9,0.5,-5%,0.2%,3%
O=C(Nc1ccccn1)c1cccnc1,1.0,-4,0.0,20%,-2.1%,0%
COc1ccccc1/C=C1\SC(=O)N(CCC(=O)N2CCCCC2CCO)C1=O (stereo unspecified),.,6,-1.2,-61%[inhibitor],-0.4%,-14%
NC(=O)c1ccc(/C(N)=N/S(=O)(=O)c2cc(C(F)(F)F)cc(C(F)(F)F)c2)cc1,-1.2,17,0.7,-5%[15.4 µM],.,8%
O=C(O)c1cccc(S(=O)(=O)Nc2ccc(-c3ccccc3)cc2)c1,.,2,0.3,10%[15.4 µM],0.4%,-1%
Cc1ccc(C)c(NC(=O)NCc2ccc3c(c2)CCN3C(=O)c2ccccc2)c1,.,-6,1.0,.,0.9%,.
CCOc1ccccc1NC(=S)N1C2CCC1CC(NC(=O)NC13CC4CC(CC(C4)C1)C3)C2 (stereo unspecified),2.9,9,0.2,-22%,1.4%,-7%

# Continuation.
structure,Menin MLL FP FL,TRPML1 blocker,TRPML1 agonist,gsp ag,ClpP mod,gsp antagonist
CC(C)CN(CC(C)C)C(=O)c1cc2c(=O)n3ccccc3nc2s1,4.6,12,-1.1,-5%[15.4 µM],1.2%,11%
CCOC(=O)c1c(NC(=O)c2ccc(C)c(C)c2)sc2c1CCCCC2,.,9,0.2,.,?,.
O=S(=O)(O)CCS,1.4&-1.3,8,0.0,.,1.7%,8%
OC(CSc1ccccc1)CN1CCN(c2ccc(Cl)cc2)CC1 (stereo unspecified),.,0,1.5,?,.,5%
COc1ccc(-n2cnc3sc(-c4ccccc4)cc3c2=O)cc1,-1.4,-1,0.6,-16%,-17%,0%
CC(C)N(C(=O)c1cc2c(Cl)nc3ccccc3c2s1)C1CCCCC1,.,15,-0.7,.,-2.2%,.
Cc1cc(C)c(NC(=O)CN2C(=O)c3cccnc3Sc3ccccc32)c(C)c1,.,-10,1.9,.,-3.0%,.
O=C(CN(Cc1ccccc1Cl)C(=O)CNS(=O)(=O)c1ccc(F)cc1)NCC1CCCO1 (stereo unspecified),.,6,0.2,-2%[15.4 µM],.,-4%
O=C(CC(=O)N/N=C/c1ccccc1)NCc1ccccc1,-6.9,-5,0.0,-2%,.,2%
CC12CCC(=O)N1C(C(=O)OCC(=O)Nc1cccc(Br)c1)CS2 (stereo unspecified),4.2,7,-0.2,-6%,.,-5%
O=C1C2C3C=CC(C3)C2C(=O)N1CCCCN1C(=O)C2C3C=CC(C3)C2C1=O (stereo unspecified),0.8,-14,-0.6,-9%,0.1%,7%
CC1CCCC(C)N1/N=C/c1ccc(O)c(O)c1 (stereo unspecified),0.4,-13,1.6,-29%,1.1%,7%
CCOc1ccccc1NC(=O)COC(=O)c1ccc2ccccc2n1,.,22,3.0,-30%[inhibitor],33%,3%
CN1OC[C@@H]2CN[C@H](c3cccc(N4CCOCC4)c3)C[C@@H]21,.,19,0.2,-2%,-2.6%,.
O=C(Nc1ccc(OC(F)(F)F)cc1)c1cc2c(=O)n3ccccc3nc2s1,.,10,0.7,.,?,.
